# BJeLR viability = BJeLR cell viability loss | BJeLR (HRASV12) viability, CellTiter-Glo ATP luminescence, 48 h; reference of the scale not given here | inhibition, % (concentration not given with the values) | actives 0.17% (n = 300,000) | AID 1554;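 active = replicate mean above 50%; inconclusive = above 50% but judged a plate artefact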;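 also: 50 nL library stock added to about 25 µL; numbers are from one replicate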
# Mtb hypoxia inh = Mtb hypoxia fluorescent reporter inhibition; M. tuberculosis hypoxia-regulated fluorescent reporter, fluorescence; fluorescence inhibition, % (no concentration beside the values); actives 0.1% (n = 300,000); AID 1159583;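 active = 35 to 45% if threefold the growth effect, above 45% if 1.5-fold the growth effect; inactive = the rest, general growth blockers included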;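 also: wells of about 50 µL received 100 nL stock; 0% = vehicle wells and 100% = reference inhibitor wells; whole bacteria with a GFP reporter of the hypoxia response; strong numbers were not always called active; many hits fall short of the cut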
# ugtP null kill = growth inhibition of S. aureus ugtP deletion strain; S. aureus RN4220 ugtP deletion, OD600 growth, 16 h; some inactives read as strong as hits; growth inhibition, % (concentration not given with the values); actives 0.54% (n = 330,000);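 active = z-score under -3 and OD600 up to 0.15 on both plates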;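 also: plate controls were untreated wells for no effect and antibiotic for full effect; wells of about 80 µL received 100 nL stock; the first replicate is given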
# Sa RN4220 lethal = kills Staphylococcus aureus RN4220 | S. aureus RN4220 growth, OD600, 16 h | AID 1259311 | actives 0.33% (n = 330,000) | inhibition, % (test concentration not listed);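 active = z-score of -3 or lower and OD600 up to 0.18 on both plates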;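 also: plate controls were untreated cells for no effect and reference antibiotic for full effect; stock transfer was 100 nL into about 80 µL; one replicate is shown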
# PrP 5UTR inh = inhibition of PrP 5' UTR reporter expression. actives 0.35% (n = 340,000). inhibition, % (concentration not given with the values). cell-based PrP 5' UTR mRNA reporter, plate reader;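 active = every replicate at 50% or more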;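 also: 0 = median of the neutral control wells; tested in H4 reporter cells; numbers are from one replicate; inactives centre near -14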
# Bead autofluor = counter-screen for toxin protease inhibitors: compound fluorescence; compound autofluorescence counterscreen, microsphere flow cytometry; hits give high values; AID 624483; actives 3.1% (n = 360,000); fluorescence intensity (test concentration not listed);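 active = at least 3 SD above the mean of all compounds, about 16000 in these data; inconclusive = too few beads counted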;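 also: 100 nL of 1 mM stock went into each well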
# Mtb hypoxia inh growth = second read-out of Mtb hypoxia inh, no call of its own (marks repeat the call); growth inhibition, %; measured here: M. tuberculosis growth (absorbance);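 0% = vehicle and 100% = reference antibiotic; read after six days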
# * = called active by the depositor; ? = inconclusive; . = no result given; & = joins results of further samples.
SMILES,BJeLR viability,Mtb hypoxia inh,Mtb hypoxia inh growth,ugtP null kill,Sa RN4220 lethal,PrP 5UTR inh,Bead autofluor
Cn1cc(Br)c(C(=O)N2CCN(c3cccc(Cl)c3)CC2)n1,12,7,4,4,4.8,-13,4222
CCS(=O)(=O)c1nc2ccccc2n1CC(=O)N1CCOCC1,-8,.,.,-2,2.9,-9,2797
C/C(=N\Nc1ccc(C(=O)O)cc1)c1ccc2c(c1)Nc1ccccc1S2,0,.,.,.,.,-20,7295
Nc1[nH]c(N=NC(=O)c2ccc(Cl)cc2)c2ccccc12,3,-21,-3,0,2.0,-12,2150
COc1cc2oc(=O)cc(-c3cccc(-c4cccc(C)c4)c3)c2c(OC)c1OC,.,4,0,14,-2.7,-13,3630
CC(C)CCNC(=O)c1ccc(NC(=O)C2=CSCCO2)cc1,-8,-4,4,-6,-0.9,-22,5369
CC(C)c1ccc(N(C(=O)c2ccco2)C(C(=O)NC2CCCC2)c2ccncc2)cc1 (stereo not drawn),2,-3,-2,-2,-6.5,-35,4799
CCNC(=O)C1CC(=O)N(c2ccc(OCC)cc2)C1 (stereo not drawn),19,13,1,2,-2.4,-7,4100
CCCN(CC1CC1)C(=O)COC(=O)c1[nH]c(C)c(C(=O)OCC)c1C,2,3,3,0,6.5,.,10914
COC(=O)C(Cc1ccccc1)NC(=O)OC1C(=O)c2cc(Br)ccc2OC1c1cccc(OC)c1 (stereo not drawn),.,8,2,-3,2.3,.,.
CN(C)C(CNc1ncnc2sc3c(c12)CCCC3)c1ccco1 (stereo not drawn),7,-1,10,1,1.5,-18,4339
CCC(C)N1C(=O)S/C(=C/c2ccc(N3CCOCC3)cc2C)C1=O (stereo not drawn),-25,0,10,-3,8.1,-51,2663
COc1ccc(Cl)cc1Nc1ncnc2sc(C)c(S(=O)(=O)N3CCC(C)CC3)c12,11,6,1,-15,-19,7,2043
COc1ccccc1NC(=O)c1ccc(NS(C)(=O)=O)cc1,-4,17,7,5,0.1,-38,4593
CCOc1ccc2[nH]cc(C(=O)N3CCN(CC)CC3)c(=O)c2c1,-1,5,3,-1,3.1,-7,3942
Cc1ccc(C(=O)OCC(=O)N(CC(C)C)c2c(N)n(Cc3ccccc3)c(=O)[nH]c2=O)s1,3,-2,1,5,1.7,-5,?
Cn1nnnc1SCC(=O)Nc1cc(C(=O)O)cc(C(=O)O)c1,-7,-7,6,-4,-2.4,-25,17115*
O=C(CCCC(=O)c1ccccc1)NCCc1ccccc1F,2,1,1,4,4.2,-25,3964
COc1ccc(-c2noc(CSc3nnc(-c4ccccc4)n3C)n2)cc1,-8,9,10,13,4.7,-27,8237
O=C(NC1(C(F)(F)F)NC(=O)N(Cc2cccnc2)C1=O)c1ccncc1 (stereo not drawn),-8,10,9,5,7.8,-19,13028
Cc1cc(C)c(C#N)c(Nc2ccccc2)n1,.,1,1,9,3.8,-4,21778*
Cc1ccccc1NC(=O)Cn1c(C)nc2ccc(N)cc2c1=O,12,10,3,-1,6.3,-8,3117
CC(=O)N1CCN(C(=O)CSc2nc3c(cnn3-c3ccccc3)c(=O)[nH]2)CC1,-1,-2,5,0,-0.1,-17,3357
O=C(Cn1c(CN2CCCCC2)nc2ccccc2c1=O)Nc1ccccc1,-1,1,-3,0,5.6,2,11456

# For convenience, five of the compounds above.
SMILES,BJeLR viability,Mtb hypoxia inh,Mtb hypoxia inh growth,ugtP null kill,Sa RN4220 lethal,PrP 5UTR inh,Bead autofluor
CC(C)c1ccc(N(C(=O)c2ccco2)C(C(=O)NC2CCCC2)c2ccncc2)cc1 (stereo not drawn),2,-3,-2,-2,-6.5,-35,4799
CCNC(=O)C1CC(=O)N(c2ccc(OCC)cc2)C1 (stereo not drawn),19,13,1,2,-2.4,-7,4100
CCCN(CC1CC1)C(=O)COC(=O)c1[nH]c(C)c(C(=O)OCC)c1C,2,3,3,0,6.5,.,10914
COC(=O)C(Cc1ccccc1)NC(=O)OC1C(=O)c2cc(Br)ccc2OC1c1cccc(OC)c1 (stereo not drawn),.,8,2,-3,2.3,.,.
CN(C)C(CNc1ncnc2sc3c(c12)CCCC3)c1ccco1 (stereo not drawn),7,-1,10,1,1.5,-18,4339

# (continued)
SMILES,BJeLR viability,Mtb hypoxia inh,Mtb hypoxia inh growth,ugtP null kill,Sa RN4220 lethal,PrP 5UTR inh,Bead autofluor
COc1ccc(-c2c(-c3ccc(OC)c(C)c3O)n[nH]c2C)cc1,-7,6,-3,16,-0.7,-19,4017
CNC(=O)Oc1ccc2c(c1)[C@]1(C)CCN(C)[C@@H]1N2C,17&-4,.,.,.,.,-11&-28,6162&6165
Cc1cccc(-c2nc(CN3CCCC(C(=O)NC4CCC(C)CC4)C3)c(C)o2)c1 (stereo not drawn),-5,-7,10,-6,4.1,-27,.
CC1=C(C(=O)Nc2ccc(Cl)cc2)C(c2ccco2)NC(=O)N1 (stereo not drawn),-10,-3,5,-5,2.2,-8,21010*
COCc1cc(=O)[nH]c(N=C(N)Nc2ccccc2C)n1,.,18,16,-7,4.5,.,.
COc1ccc(NC(=O)NC(c2ccccc2)c2ccccc2)c(OC)c1,-7,8,2,7,3.9,-5,?
Nc1nonc1-n1nnc(C(=O)N/N=C/c2ccc(OCc3ccccc3F)cc2)c1CN1CCCCC1,-3,.,.,.,.,-31,5291
COc1cc(S(=O)(=O)N2CCOCC2)ccc1N,-5,8,-5,5,6.5,-10,3405
COc1ccccc1-c1nnc(SCC(=O)Nc2ccc(N3CCOCC3)cc2)n1C,2,-5,3,2,1.8,-23,4927
COc1ccc(NC(=O)CC23CC4CC(CC(Br)(C4)C2)C3)c(OC)c1,1,11,9,3,2.0,-23,3987
O=C(CC1Nc2cccc3cccc(c23)NC1=O)Nc1ccc(F)cc1 (stereo not drawn),0,3,-2,-1,-2.5,-22,4493
Cc1ccc2c(c1)c1c3n2CCN(C(=O)CCl)C3CCC1 (stereo not drawn),1,.,.,.,.,-4,4051
CC(=O)Oc1cc(OC(C)=O)c2c(=O)c(-c3ccc4c(c3)OCCCO4)c(C)oc2c1,13,-2,18,0,-0.2,-21,3697
Clc1ccc(-c2nnsc2SCc2ccccc2)cc1,3,0,6,9,-11,1,22947*
CSc1ncccc1C(=O)Nc1nc2ccc(S(C)(=O)=O)cc2s1,7,3,0,-71,5.7,-15,4465
Cc1ccc(S(=O)(=O)NN=Cc2ccc(OCC(=O)Nc3ccccc3Cl)cc2)cc1,.,11,6,-3,9.7,.,.
CC(=O)c1ccc(-n2ccnc2)cc1,-6,-11,4,3,3.8,-9,4399
Nc1c(C(O)(C(F)(F)F)C(F)(F)F)cc(C(O)(C(F)(F)F)C(F)(F)F)c2ccccc12,9,8,11,-3,72,-7,2986
CCOC(=O)c1[nH]c(C)c(C(=O)NCc2ccc(Cl)cc2)c1C,-8,2,5,-3,-0.1,.,11847
CC(C)(C)OC(=O)N1CCC(c2c(C(=O)N3CCN(C4CCCCC4)CC3)cnn2-c2ccccc2)CC1,-9,-5,1,-3,3.0,-11,6181
COc1ccccc1C(=O)Oc1cc(N)n(S(=O)(=O)c2ccccc2)n1,-2,1,-8,9,-1.5,-20,1944
CCOc1ccc(CN(C(=O)c2oc3cc(C)ccc3c2C)C2CCS(=O)(=O)C2)cc1 (stereo not drawn),3,6,5,-13,1.0,-4,11232
COc1ccccc1C1=NC(c2ccc(F)cc2)N=C1C (stereo not drawn),5,0,3,6,5.1,-18,1936
CN1CCN(c2nc3c(c(=O)[nH]c(=O)n3C)n2Cc2ccccc2)CC1,-1,8,10,14,3.1,7,4322
CCOC(=O)/C(N=O)=C(\O)C1CCN(C(=O)OCC)CC1,-4,.,.,2,0.4,-7,4269
Cc1csc(NC(=O)c2cc3c(C)nn(Cc4ccccc4Cl)c3s2)n1,-5,-11,9,6,16,-7,3151
C=CCn1c(NCc2c[nH]c3ccccc23)nc2ccccc21,4,12,0,0,-9.6,-29,2440
CCCCN(CCCC)Cc1ccc(C(=O)NNC(=O)Nc2ccc(Cl)cc2)o1,-1,2,4,16,2.9,-10,3799
O=C(Nc1nnc(C2CC2)s1)C1CCCCN1S(=O)(=O)c1ccccc1 (stereo not drawn),3,18,6,-67,12,-12,5807
O=C(NC(Cc1ccccc1)C(=O)O)c1c(F)c(F)c(F)c(F)c1F (stereo not drawn),.,7,7,5,3.4,.,.
Cc1nc2ccccn2c1/C(O)=C1\C(=O)C(=O)N(CCN(C)C)C1c1cccnc1 (stereo not drawn),-4,.,.,.,.,-2,3266
CC[C@@]1(C(=O)OC)N[C@H](CN(C)S(=O)(=O)c2ccc(-c3ccccc3)cc2)[C@@H]2C(=O)N(Cc3ccccc3)C(=O)[C@@H]21,.,-5,12,-9,2.6,-21,3512
Cc1ccc(NC(=O)c2cc(S(=O)(=O)N3CCCCC3)ccc2N2CCOCC2)cc1F,-2,6,7,10,1.8,-27,8971
Cc1cccc(NS(=O)(=O)c2ccc(C)c(NS(=O)(=O)c3cccs3)c2)c1,.,-7,-8,-7,12,-10,5503
Cc1ncc(S(=O)(=O)c2ccccc2)c(-c2ccccc2)n1,-10,.,.,-1,7.5,-2,3353
CCN1C(=O)c2cccc3c(NC(=O)c4ccc(S(=O)(=O)N(C)C)cc4)ccc1c23,-3,.,.,5,1.9,-5,2852
CCOc1ccc2nc(N(CCN(C)C)C(=O)/C=C/c3cccs3)sc2c1,-10,19,20,-13,-8.3,-11,6034
Cc1ccc(CN(C(=O)COc2ccc(Br)cc2)C2CCS(=O)(=O)C2)o1 (stereo not drawn),-2,13,3,9,4.0,-23,5304
C=CCOn1c(C)c(C(C)=O)c2c3nonc3ccc21,0,9,4,4,6.1,14,3221
COc1ccc(S(=O)(=O)N2CCN(C)CC2)cc1C,-3,.,.,1,0.8,-22,6031
CC1CCC(=O)N(CC(C)CSc2ccc(Br)cc2)CC1 (stereo not drawn),.,19,7,16,7.9,.,.
COc1ccc(NC(=O)c2ccc(NC3CC(=O)N(c4ccc(C)cc4C)C3=O)cc2)cc1 (stereo not drawn),4,-1,-4,0,15,-12,5361
C=CCn1c(=S)[nH]c2scc(-c3ccc(C)o3)c2c1=O,-1,10,4,69,69,-22,4081
OC(CN1CCN(C(c2ccccc2)c2ccccc2)CC1)c1ccc(Br)cc1 (stereo not drawn),-10,-19,9,-9,-3.7,-13,2863
CC#CCN1c2ccccc2[C@]23C[C@@H](C(=O)OC)N(C(=O)c4ccco4)C2=NC(C(=O)OC)=C(C(=O)OC)[C@H]13,-10,.,.,.,.,-26,3502
CCS(=O)(=O)C(=C1NCCO1)S(=O)(=O)CC,-5,-1,3,3,3.8,-14,4257
CN(C(=O)Cn1nnc(-c2ccccc2)n1)C1CCS(=O)(=O)C1 (stereo not drawn),-14,-7,3,7,1.4,-22,6260
CC(C(=O)NC(=O)NCc1ccccc1)N1C(=O)c2ccccc2C1=O (stereo not drawn),.,.,.,-3,3.1,-4,3518
O=C(Cn1ncc2c1-c1ccccc1OC2)Nc1ccc(S(=O)(=O)N2CCCCC2)cc1,.,0,5,-15,-5.9,-1,4432
Cc1cccc(CS(=O)(=O)c2ncc(Cl)c(C(=O)Nc3nnc(C(C)C)s3)n2)c1,9,.,.,.,.,24,4124
O=C(Cn1cnc2c(cnn2-c2ccc(F)cc2)c1=O)NCCc1ccccc1,0,-1,6,10,1.1,-14,4081
Cc1ccnc(NC(=O)c2ccccc2[N+](=O)[O-])c1,-4,4,1,-1,3.2,-27,4086
O=C1CC(c2ccco2)Cc2nc(N3CCN(Cc4ccc5c(c4)OCO5)CC3)ncc21 (stereo not drawn),.,.,.,-7,-1.4,-17,2827
CCC(C)n1c(-c2cccs2)nc2nc3ccccc3nc21 (stereo not drawn),-8,3,7,-8,-13,3,2505
C=CCn1c(O)c(N=NC(=O)c2cccnc2)c2cc(Br)ccc21,-1,0,-10,2,2.3,-7,3751
Cc1cc(/C=C2\C(=N)N3N=C(c4ccco4)SC3=NC2=O)c(C)n1Cc1ccccc1,3,.,.,.,.,-14,4253
CN(C)c1ccc(S(=O)(=O)NCC(=O)N2CCN(S(=O)(=O)c3cccc(F)c3)CC2)cc1[N+](=O)[O-],.,6,-5,2,2.7,-8,3836
Cn1cc(S(=O)(=O)Cc2ccc(F)cc2)c2ccccc21,7,2,7,19,26,-25,5438

# Bioassay records (PubChem)
